Source: PubChem BioAssay
AmpC inh no det: inhibitors of E. coli AmpC beta-lactamase without detergent; AmpC nitrocefin hydrolysis, absorbance 480 nm, no detergent; potencies from a single point are estimates; Potency, µM (top dose mostly 28.7 µM), for the others: top-dose activity change, negative = inhibition; actives 1.8% (n = 71,000); active = falling curve, for most hits resting on a single point; inconclusive = weak or doubtful change; inactive = flat or rising curve; note: % of control where 0% means no effect; about half of the hits show no inhibition at the top dose; a quarter of the inactives give rising signals
Target sequence (P00811 whole entry, looked up): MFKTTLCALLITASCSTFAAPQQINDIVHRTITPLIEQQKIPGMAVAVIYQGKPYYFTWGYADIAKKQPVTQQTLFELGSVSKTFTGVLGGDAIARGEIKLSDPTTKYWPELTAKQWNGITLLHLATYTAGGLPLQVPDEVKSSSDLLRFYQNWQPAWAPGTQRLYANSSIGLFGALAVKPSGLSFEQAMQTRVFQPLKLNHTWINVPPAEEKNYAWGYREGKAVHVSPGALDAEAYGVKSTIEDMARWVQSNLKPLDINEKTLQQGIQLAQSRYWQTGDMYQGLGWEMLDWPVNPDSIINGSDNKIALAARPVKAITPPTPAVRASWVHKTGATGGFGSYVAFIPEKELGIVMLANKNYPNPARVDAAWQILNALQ
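AmpC in 20 mM phosphate buffer pH 7.0 was preincubated 15 min at room temperature with compounds. Nitrocefin (800 uM stock) was then added and hydrolysis followed at 480 nm every 20 s for 4 min.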
Active calls of the source: *; & = joins results of further samples; [ ] = dose if it differs, or a comment. Potency is the fitted concentration of half-maximal effect. An excerpt; count on the stated rates, not on these rows.

Screening CCCCN(c1ccccc1)c1ncnc2nc[nH]c12 returned AmpC inh no det -0.8%.
Screening Cc1csc(CCc2nc(C)cs2)n1 returned AmpC inh no det 6.9%.
`CC1(C)CC(=O)c2cnc(NC(=O)C3CCCC3)nc2C1` gave AmpC inh no det 5.0%.
Screening CCOc1ccc2nc(NC(=O)CSc3nc4cccnc4n3C)sc2c1 returned AmpC inh no det 91.3%.
COc1ccc(S(=O)(=O)NCC(=O)N(CC(=O)NCC2CCCO2)c2cc(C)ccc2C)cc1 (stereo unspecified) was read as AmpC inh no det 86.4%.
`CC(=O)Nc1ccc(NC(=O)c2ccco2)cc1` gave AmpC inh no det -4.7%.
COc1cccc(CNCCSc2nnnn2C)c1 was read as AmpC inh no det -7.7%.
For COc1ccc(N2CC(C)Cn3c2nc2c3c(=O)n(Cc3ccc(F)cc3)c(=O)n2C)c(OC)c1 (stereo unspecified) the results were AmpC inh no det 125.8%.
`Cn1c(SCC(=O)Nc2cccc(F)c2)nnc1-c1cccnc1` gave AmpC inh no det 15.9%.
Cc1ccc(-c2nn3c(=O)c(C)nnc3s2)cc1 was read as AmpC inh no det 8.6%.
For COCCNC(=O)CCn1c(=O)oc2ccccc21 the results were AmpC inh no det -9.5%.
`O=C(c1ccc2c(=O)n(-c3ccccc3)c(=O)[nH]c2c1)N1CCCCC1` gave AmpC inh no det 1.4%.
For COc1ccc(-c2nc3cnc(N4CCOCC4)nc3n(C3CC3)c2=O)cc1 the results were AmpC inh no det 6.0%.
Screening Cc1cccc(NC(=O)Nc2cccc(F)c2)n1 returned AmpC inh no det -11.2%.
For O=S(=O)(c1ccc(F)cc1)N1CCN(CC(O)COCc2cccs2)CC1 (stereo unspecified) the results were AmpC inh no det 35.8%.
Screening CC1(C)CC(=O)C2=C(C1)OC(N)=C(C#N)C21C(=O)N2CCCc3cccc1c32 (stereo unspecified) returned AmpC inh no det 27.7%.
Screening COCCn1cc(C(=O)N2CCN(C)CC2)c2c3ccccc3n(C)c2c1=O returned AmpC inh no det 18.5%.
Cc1cc(C)cc(-n2nnc(C(=O)NCc3ccc4c(c3)OCO4)c2N)c1 was read as AmpC inh no det -8.8%.
Screening O=C(O)C1CSC(c2cccnc2)N1 (stereo unspecified) returned AmpC inh no det 0.0%.
COC(=O)c1ccccc1NC(=O)CSc1nc(N)cc(N)n1 was read as AmpC inh no det 6.7%.
Screening CCOc1ccccc1OCC(=O)Nc1ccc(S(=O)(=O)Nc2ncccn2)cc1 returned AmpC inh no det -3.1%.
COc1ccccc1-c1cncnc1NCc1cnc(C)cn1 was read as AmpC inh no det 4.3%.
`CC(=O)C1=C(O)C(=O)N(Cc2ccccc2)C1c1ccco1` (stereo unspecified) gave AmpC inh no det -11.8%.
For CCn1c(SCC(=O)Nc2ccccc2OC)nnc1-c1cnccn1 the results were AmpC inh no det 29.2%.
For c1ccc(N2CCOCC2)c(Nc2nc3ccccc3n3cnnc23)c1 the results were AmpC inh no det 24.1%.
For O=C(CN1CCN(c2cccc(Cl)c2)CC1)N1CCCC1 the results were AmpC inh no det 32.4%.
Screening C=CCSc1nc2nc(C)cc(C)n2n1 returned AmpC inh no det 2.8%.
CCOC(=O)c1cnc(Nc2ccc(OCC)cc2)nc1C was read as AmpC inh no det 6.2%.
Screening CC1(C)CC(=O)C2=C(C1)NC(Nc1nc3ccccc3o1)=NC21CCCC1 returned AmpC inh no det -18.4%.
Screening O=C(NCc1cccnc1)NC1(C(F)(F)F)Oc2ccccc2O1 returned AmpC inh no det 6.2%.
For O=C(c1cnccn1)N1CCC[C@@]2(CCN(c3ccccc3)C2)C1 the results were AmpC inh no det 81.9%.
`CC(=O)OC1CC(C)N(C(=O)c2ccccc2)c2ccc(C)cc21` (stereo unspecified) gave AmpC inh no det 44.7%.
`CCOC(=O)C1=C(C)NC(=O)NC1C` (stereo unspecified) gave AmpC inh no det -1.4%&-3.4%.
`O=C(Nc1cccc(-c2nc3ccccc3[nH]2)c1)c1cccc(NC(=O)c2ccco2)c1` gave AmpC inh no det -17.2%.
`Cc1ccc(OCC(=O)Nc2ccc3c(c2)nc(CCN2CCOCC2)n3C)cc1` gave AmpC inh no det 20.7%.
COc1ccccc1N(CC(=O)Nc1ccc(F)c(F)c1)S(C)(=O)=O was read as AmpC inh no det 10.0%.
For N#Cc1nc(Cc2cccc3ccccc23)oc1NCc1ccc2c(c1)OCO2 the results were AmpC inh no det 53.8%.
`CCOCCCNC(=O)c1c(-c2ccccc2)noc1C` gave AmpC inh no det 10.9%.
For COc1ccc2[nH]cc(CCNc3ncncc3-c3ccccc3C)c2c1 the results were AmpC inh no det 11.4%.
`Cc1ccc2oc3c(c(=O)c2c1)C(c1cccc(Cl)c1)N(CCCN1CCOCC1)C3=O` (stereo unspecified) gave AmpC inh no det 123.0%.

7 entries drawn at random from those above, as already listed:
For O=S(=O)(c1ccc(F)cc1)N1CCN(CC(O)COCc2cccs2)CC1 (stereo unspecified) the results were AmpC inh no det 35.8%.
`CC(=O)Nc1ccc(NC(=O)c2ccco2)cc1` gave AmpC inh no det -4.7%.
`CC1(C)CC(=O)c2cnc(NC(=O)C3CCCC3)nc2C1` gave AmpC inh no det 5.0%.
`CC(=O)C1=C(O)C(=O)N(Cc2ccccc2)C1c1ccco1` (stereo unspecified) gave AmpC inh no det -11.8%.
For N#Cc1nc(Cc2cccc3ccccc23)oc1NCc1ccc2c(c1)OCO2 the results were AmpC inh no det 53.8%.
COc1ccccc1-c1cncnc1NCc1cnc(C)cn1 was read as AmpC inh no det 4.3%.
Screening C=CCSc1nc2nc(C)cc(C)n2n1 returned AmpC inh no det 2.8%.

More structures.
`CCOC(=O)CCC(=O)Nc1ccccc1C(N)=O` gave AmpC inh no det -13.4%.
Screening CCOC(=O)O[C@]1(C(=O)COC(=O)CC)CC[C@@H]2[C@@H]3CCC4=CC(=O)C=C[C@@]4(C)[C@H]3[C@H](O)C[C@]21C returned AmpC inh no det 88.4%[12.8 µM].
`CCCNc1nc2c(c(=O)[nH]c(=O)n2C)n1CCc1ccccc1` gave AmpC inh no det -8.2%.
For Nn1c(SCC(=O)Nc2ccc3c(c2)OCO3)nnc1C1CC1 the results were AmpC inh no det -18.0%.
`CC(C)C(c1nnnn1Cc1cccs1)N1CCN(c2ccccc2)CC1` (stereo unspecified) gave AmpC inh no det 10.4%.
N=c1n(Cc2ccccc2)c2ccccc2n1CC(O)COc1ccccc1 (stereo unspecified) was read as AmpC inh no det -19.9%.
Screening Cn1nc(C(=O)Nc2ccc(S(=O)(=O)N3CCCCC3)cc2)ccc1=O returned AmpC inh no det 47.0%.
For CCN(CC(=O)NCc1ccc(F)cc1)CC(O)COCc1cccc(OC)c1 (stereo unspecified) the results were AmpC inh no det 68.4%.
For O=C(NCC(=O)N(c1ccc(F)cc1)C(C(=O)NCC1CCCO1)c1ccccc1)c1ccco1 (stereo unspecified) the results were AmpC inh no det 62.6%.
Screening c1ccc2c(CN3CCCCCCC3)c[nH]c2c1 returned AmpC inh no det -8.6%.
`COc1ccc(N2CCN(Cc3nc4c(c(=O)[nH]c(=O)n4C)n3CC(C)=O)CC2)cc1` gave AmpC inh no det 4.3%.
`O=C(CN1CCN(Cc2ccccc2Cl)C1=O)NC1CCCCCCC1` gave AmpC inh no det 61.5%.
For CCOc1ccc(N(CC(=O)NCc2cccs2)S(=O)(=O)c2c(C)noc2C)cc1 the results were AmpC inh no det 38.0%.
NC(=O)C1CCN(C(=O)c2cc3n(n2)C(C(F)(F)F)CC(c2ccco2)N3)CC1 (stereo unspecified) was read as AmpC inh no det 11.7%.
`CCOC(=O)C1C(=O)NC(N2CCc3ccccc32)=NC1c1ccccc1` (stereo unspecified) gave AmpC inh no det -3.8%.
For O=C(O)CCNc1ccccc1C(=O)O the results were AmpC inh no det 9.6%[5.75 µM].
For CC(=O)Nc1ccc(S(=O)(=O)N2CCN(c3cccc(C)c3C)CC2)cc1 the results were AmpC inh no det 53.9%.
Screening Cc1ccc(C2/C(=C(/O)c3ccc(Br)cc3)C(=O)C(=O)N2Cc2ccco2)o1 (stereo unspecified) returned AmpC inh no det -9.2%.
`Cc1cc(C(=O)OCC(=O)N2CCN(c3ccccc3)CC2)c2ccccc2n1` gave AmpC inh no det 102.6%.
For Cc1cccc2sc(NC(=O)CNS(=O)(=O)c3ccc(Br)s3)nc12 the results were AmpC inh no det -23.5%.

3 structures from above, ordered by length of the SMILES, largest number first:
Screening CCOC(=O)O[C@]1(C(=O)COC(=O)CC)CC[C@@H]2[C@@H]3CCC4=CC(=O)C=C[C@@]4(C)[C@H]3[C@H](O)C[C@]21C returned AmpC inh no det 88.4%[12.8 µM].
For Cc1cccc2sc(NC(=O)CNS(=O)(=O)c3ccc(Br)s3)nc12 the results were AmpC inh no det -23.5%.
For O=C(O)CCNc1ccccc1C(=O)O the results were AmpC inh no det 9.6%[5.75 µM].

(list continues)
Screening CCC(=Nc1ccc(N)cc1)C1=C(O)C(C(=O)OC)C(C)(C)CC1=O (stereo unspecified) returned AmpC inh no det 9.2%.
O=C(O)c1nnsc1-c1ccc(-c2snnc2C(=O)O)cc1 was read as AmpC inh no det -3.8%[5.75 µM].
Screening CCOc1ccc(S(=O)(=O)n2ccc(C)n2)c2ccccc12 returned AmpC inh no det 24.1%.
CCn1c(SCC(=O)Nc2nnc(C)s2)nc2c(c1=O)SC(C)C2 (stereo unspecified) was read as AmpC inh no det 0.8%.
For CC1(C)CC(=O)C(C=NCc2ccc3c(c2)OCO3)=C(O)C1 the results were AmpC inh no det 23.2%.
Screening COCCCNC(=O)c1cn(Cc2c(F)cccc2Cl)nn1 returned AmpC inh no det 4.7%.
For CCOC(=O)NC(=O)CSc1nc(C)cc(C(F)(F)F)c1C#N the results were AmpC inh no det 9.1%.
C/C(N)=C(/C#N)C(=O)COC(=O)C(NS(=O)(=O)c1ccc(Cl)cc1)C(C)O (stereo unspecified) was read as AmpC inh no det 9.3%.
For Cc1ccc(N2CC(C(=O)N3CCCc4ccccc43)CC2=O)cc1 (stereo unspecified) the results were AmpC inh no det 35.0%.
For NS(=O)(=O)c1ccc(N=Nc2cc3ccccc3c(C(=O)O)c2O)cc1 the results were AmpC inh no det -15.5%[5.75 µM].
`COc1cccc(-c2csc3nnc(SCC(=O)NCc4cccs4)n23)c1` gave AmpC inh no det 2.3%.
O=C(CCSc1nnc(-c2ccncc2)o1)Nc1ccc(F)cc1 was read as AmpC inh no det 11.1%.
Screening CC(=O)NC(N1CCCCC1)C(F)(F)C(F)(F)C(F)(F)C(F)F (stereo unspecified) returned AmpC inh no det 22.0%.
CC1(C)Cc2cccc(OCC(=O)O)c2O1 was read as AmpC inh no det -11.0%.
For Cn1c(=O)cc(OCC(=O)N2CCC(N3CCCCC3)CC2)c2ccccc21 the results were AmpC inh no det -19.5%.
`FC(F)(F)c1cccc(OCCOCCn2cncn2)c1` gave AmpC inh no det 11.6%.
O=S1(=O)N=C(N2CCN(Cc3ccc4c(c3)OCO4)CC2)c2ccccc21 was read as AmpC inh no det 30.1%.
Screening COc1ccccc1-c1cc2nc(C)c(CCC(=O)NCc3ccco3)c(C)n2n1 returned AmpC inh no det 150.7%.
`Cc1ccc(-c2nc(CN(C)C)cc(CN(C)C)c2O)cc1` gave AmpC inh no det 2.2%.
Screening CC1CCN(S(=O)(=O)c2ccc(S(=O)(=O)N3CCN4CCCC4C3)cc2)CC1 (stereo unspecified) returned AmpC inh no det 26.0%.
Screening CCOC(=O)C1=C(C)NC(=O)NC1c1cc2c(cc1Br)OCO2 (stereo unspecified) returned AmpC inh no det 5.9%.
O=C(c1ccc(CS(=O)(=O)c2c(Cl)cccc2Cl)o1)N1CCCC1 was read as AmpC inh no det 12.7%.
Screening C(=N\c1nc2ccccc2n1Cc1ccccc1)/c1cccs1 returned AmpC inh no det 2.4%.
For O=C1C2C(c3ccccc3)C=CC(c3ccccc3)C2C(=O)N1CCO (stereo unspecified) the results were AmpC inh no det 77.2%.
Cc1ccnc(NS(=O)(=O)c2ccc(NC(=O)C3CCCCC3C(=O)O)cc2)n1 (stereo unspecified) was read as AmpC inh no det -10.7%.
CCOc1ccccc1C1CC(c2ccc(Cl)cc2)Nc2nc(N)nn21 (stereo unspecified) was read as AmpC inh no det 95.0%.
`Cc1occc1C(=O)NC(C)C(C)(C)C` (stereo unspecified) gave AmpC inh no det -6.0%.
For CCSc1nnc(NC(=O)c2ccc(Br)s2)s1 the results were AmpC inh no det 10µM*.
`O=C1C2C3C=CC(C3)C2C(=O)N1c1ccc(-c2nc3ccccc3o2)cc1` (stereo unspecified) gave AmpC inh no det -8.2%.
`CCCN1Cc2cccc(C(=O)Nc3ccc(OC)c(OC)c3)c2C1=O` gave AmpC inh no det 73.2%.
`CCCCOCCCNC(=O)N[C@@H](CCSC)C(=O)OC` gave AmpC inh no det 6.4%.
`CC(C)(C)c1nc(CN2CCOCC2)ccc1O` gave AmpC inh no det 7.0%.
CC(=O)c1ccc(N2CCN(C(=O)c3ccco3)C(C)C2)c(F)c1 (stereo unspecified) was read as AmpC inh no det 12.4%.
Screening COC(=O)Cc1nnc(NC(=O)c2ccccc2)s1 returned AmpC inh no det -4.3%.
For CC[C@H](C)N(C)C(=O)c1cc2ccccc2c(-c2ccccc2Cl)n1 the results were AmpC inh no det 109.1%&86.7%.
CCc1ccc2oc(=O)cc(CN3CCC(C)CC3)c2c1 was read as AmpC inh no det -15.1%.
